Compound activity deposited in PubChem BioAssay by NMMLSC.
Bead autofluor: flagged as autofluorescent in microsphere protease counterscreen; compound autofluorescence counterscreen, microsphere flow cytometry; active compounds read high; fluorescence intensity (concentration not given with the values); actives 3.1% (n = 360,000);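 active = at least 3 SD above the mean of all compounds, about 16000 in these data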;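 also: 100 nL of 1 mM stock went into each well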
* marks the source's active call; other numbers are inactive results.

COC(=O)C12CCc3cc(OC)ccc3C1=CC(=O)C2 (stereo unspecified)
  Bead autofluor: 3896
C[C@@H]1CN([C@@H](C)CO)C(=O)CCCn2cc(nn2)CO[C@H]1CN(C)S(=O)(=O)c1cccc(C#N)c1
  Bead autofluor: 3631
Cc1cn([C@H]2C[C@H](O)[C@@H](CNCc3cccn3-c3nccs3)O2)c(=O)[nH]c1=O
  Bead autofluor: 3655
CCN1C(=O)[C@H]2[C@@H](c3ccc(OC)cc3)N[C@]3(CCCN(Cc4ccc(OC)cc4)C3=O)[C@H]2C1=O
  Bead autofluor: 3995
CC(C)NC(=O)c1cc(C2CCCCN2C(=O)c2cc(C(C)(C)C)nn2C)on1 (stereo unspecified)
  Bead autofluor: 2906
O=C1CCCC[C@@H](CO)[C@H](O)C[C@H](c2ccccc2)O1
  Bead autofluor: 5881
Cc1cscc1-c1ccc(C(=O)Nc2c(C)cccc2C)o1
  Bead autofluor: 3850
COCCNc1nc(NCc2cccs2)nc2ccsc12
  Bead autofluor: 3723
CSCCC(c1nnnn1-c1c(C)cccc1C)N1CCC(n2c(=O)[nH]c3ccccc32)CC1 (stereo unspecified)
  Bead autofluor: 4532
Cc1ccc(S(=O)(=O)N2C[C@H]3C(=O)C[C@@H](c4ccccc4)N(S(=O)(=O)c4ccccc4)[C@H]3C[C@H]2c2ccccc2)cc1
  Bead autofluor: 5349
COc1cc(F)ccc1-c1csc(C(C)(O)c2ccc(F)c(F)c2)n1 (stereo unspecified)
  Bead autofluor: 3278
CC1=C(C(=O)N2CCCCCC2)CC(CC(=O)NCCN2CCOCC2)C(=O)N1CCC1=CCCCC1 (stereo unspecified)
  Bead autofluor: 6079
Cc1ccc(Cn2cc(CN3CC(N4CCN(Cc5cccc(C)c5)CC4)CS3(=O)=O)nn2)cc1 (stereo unspecified)
  Bead autofluor: 4131
O=c1cc(O)cc2n1CCC2
  Bead autofluor: 4189
O=C(Nc1cccc(Cl)c1)c1nc[nH]c1C(=O)Nc1ccccc1F
  Bead autofluor: 3593
CCCCc1ccc(S(=O)(=O)NC(=O)C2(C)CCN2C(=O)c2ccccc2)cc1 (stereo unspecified)
  Bead autofluor: 3425
CCc1cc(-c2cnnn2Cc2ccccc2)ccc1-c1cn(CC(C)C)nn1
  Bead autofluor: 2907
O=S1(=O)CCN(CCCc2ccccc2)CC1
  Bead autofluor: 3162
CC(=O)Nc1ccc(S(=O)(=O)NN=c2sc3ccccc3n2C)cc1N
  Bead autofluor: 2882
COCCN1C(=O)c2ccccc2C1c1nnnn1-c1ccc2c(c1)OCCO2 (stereo unspecified)
  Bead autofluor: 6200
COc1cccc(CN2CCC2(C)C(=O)Nc2ccc(C)c(O)c2)c1F (stereo unspecified)
  Bead autofluor: 3004
O=S1(=O)CC(N2CCCCC2)CN1Cc1cn(Cc2ccc(C(F)(F)F)cc2)nn1 (stereo unspecified)
  Bead autofluor: 5344
Cc1cn([C@H]2C[C@H](O)[C@@H](CNCc3ccc(N4CCN(C)CC4)cc3F)O2)c(=O)[nH]c1=O
  Bead autofluor: 2874
CCCNC(=O)c1cc(C2CCCCN2C(=O)c2cc(OC)c(C)c(OC)c2)on1 (stereo unspecified)
  Bead autofluor: 2933
NC(=O)c1c(N)[nH]c(C(=O)c2ccccc2)c1-c1ccccc1Br
  Bead autofluor: 6169

CCN(CC)C(=O)C1=C(C)N(CCCN2CCCC2=O)C(=O)C(CC(=O)NCc2ccco2)C1 (stereo unspecified)
  Bead autofluor: 3848
CCCCCCN1C[C@@H](O)[C@H](n2cc(-c3ccc(F)cc3)nn2)C[C@@H]1c1ccc(C)cc1
  Bead autofluor: 3703
O=C1O[C@@H](c2ccccc2)C[C@@H](O)[C@H](O)CCc2ccccc21
  Bead autofluor: 6414
COc1ccccc1CNc1nc(NCc2ccccc2OC)c2sccc2n1
  Bead autofluor: 3610
O=C(CSc1nnc(CNC(=O)c2c(F)cccc2F)o1)c1ccc(Cl)cc1
  Bead autofluor: 3436
Cn1cnc(S(=O)(=O)N2CCCCC2c2cc(C(=O)Nc3ccc(F)c(Cl)c3)no2)c1 (stereo unspecified)
  Bead autofluor: 3360
CCc1nc2c(OCC(=O)c3ccc(Cl)cc3Cl)cccn2c1N(C)C(=O)COc1ccccc1
  Bead autofluor: 4051
CC1(C(=O)Nc2cccnc2)Cc2c(-c3cccc(C(F)(F)F)c3)ccnc2O1 (stereo unspecified)
  Bead autofluor: 3422
COc1ccc(Cl)cc1-c1cc(C(=O)Nc2ccc(F)cc2)[nH]n1
  Bead autofluor: 3905
CCOc1ccc(CN(C)C(=O)c2cccc(S(=O)(=O)Nc3ccccc3OC)c2)cc1OC
  Bead autofluor: 3989
CN1CCN(C(=O)c2ccc(NC(=O)c3ccc(Br)o3)cc2)CC1
  Bead autofluor: 5553
CC(C(=O)O)(C1CCCCC1)C1(O)CCCCC1 (stereo unspecified)
  Bead autofluor: 5824
Cc1ccc(S(=O)(=O)N2CCN(c3nc(-c4cccs4)nc4ccccc34)CC2)cc1
  Bead autofluor: 2998
CC(C)Oc1ccc(C(=O)N2CCC(CCC(=O)NC3CC3)CC2)cc1
  Bead autofluor: 3431
CCCCCCN1C[C@H](O)[C@@H](n2cc(COC(=O)c3ccccc3)nn2)C[C@@H]1c1ccc(C)cc1
  Bead autofluor: 4334
CC1(C(=O)NCC2CC2)CCN1C(=O)C1(c2ccccc2)CC1 (stereo unspecified)
  Bead autofluor: 3753
CCc1nc2c(OCc3ccc(F)cc3)cccn2c1N(C)C(=O)c1ccncc1
  Bead autofluor: 4008
CC(=O)c1cccc(NC(=O)c2cccc3c(-c4cnn(C)c4)coc23)c1
  Bead autofluor: 3389
OC[C@H]1O[C@@H](c2nc3ccc(-c4nc(-c5ccc(Br)cc5)no4)cc3[nH]2)C[C@@H]1O
  Bead autofluor: 2947
Cc1cscc(C)c1=S
  Bead autofluor: 3782
CC(C)(C)C1CCN2CCCC(c3ccccc3)(C1)C2=O (stereo unspecified)
  Bead autofluor: 4353
CCCc1cc(=O)oc2cc(OCC(=O)N3CC[C@@]4(O)CCCC[C@H]4C3)ccc12
  Bead autofluor: 5336
CSCCC(NS(=O)(=O)Cc1ccccc1)C(=O)NNc1ccccc1 (stereo unspecified)
  Bead autofluor: 5508
CC(C)(C)c1csc(NC(=O)CCS(=O)(=O)c2ccc(F)cc2)n1
  Bead autofluor: 3730
COc1cccc(C(NC(C)=O)c2nc(-c3ccccc3)cs2)c1 (stereo unspecified)
  Bead autofluor: 3462

O=C(CCc1nc2ccccc2c(=O)[nH]1)Nc1ccccc1N1CCCCC1
  Bead autofluor: 2978
O=C(NCc1cccnc1)c1cc(C(=O)NCc2cccnc2)cc([N+](=O)[O-])c1
  Bead autofluor: 3865
O=C(C[C@H]1C[C@@H]2c3cc(NC(=O)c4ccc5c(c4)OCO5)ccc3O[C@@H]2[C@H](CO)O1)NCc1cc(F)ccc1F
  Bead autofluor: 3404
CC1(C(=O)NCC2CCCCC2)CCN1CCc1ccccc1 (stereo unspecified)
  Bead autofluor: 4263
CN(C)c1ccc(CNC(=O)C2(C)Cc3c(-c4ccccc4)ccnc3O2)cc1 (stereo unspecified)
  Bead autofluor: 3540
Nc1ccc(Oc2ccc(N)c([N+](=O)[O-])c2)cc1[N+](=O)[O-]
  Bead autofluor: 4026
CCCCNC(=O)C1(C)CCCCN1C(=O)c1csnn1 (stereo unspecified)
  Bead autofluor: 3376
CC(=O)Nc1ccc(-c2ccnc3c2CC(C)(C(=O)NCc2ccc(F)c(F)c2)O3)cc1 (stereo unspecified)
  Bead autofluor: 3209
C[C@H]1CN([C@@H](C)CO)C(=O)c2cc(Br)cnc2O[C@H]1CN(C)S(=O)(=O)c1cccs1
  Bead autofluor: 2771
COc1cccc(NC(=O)C2(C)CCN2C(C)C)c1OC (stereo unspecified)
  Bead autofluor: 4108
CSc1ccc(NC(=O)C2(C)CCN2C(=O)c2ccccc2CCc2ccccc2)cc1 (stereo unspecified)
  Bead autofluor: 3782
O[C@H]1C[C@H](c2ccccc2)N(Cc2cccs2)C[C@@H]1n1cc(-c2ccc(F)cc2)nn1
  Bead autofluor: 3398
O=CNc1cc(-c2cccc(F)c2)cn2c(-c3ccc(F)c(Cl)c3)cnc12
  Bead autofluor: 2961
COC(=O)c1ccc2nc(-c3ccccc3)c(Cc3ccccc3OC)n2c1
  Bead autofluor: 9649
O=C(c1cccc(Cl)c1)N1CCN(c2ccc3c(c2)C2CC3CCN2C(=O)OCc2ccccc2)CC1 (stereo unspecified)
  Bead autofluor: 6582
CCN(CC)C(=O)C1CCCN(Cc2cccc(Cl)c2)C1 (stereo unspecified)
  Bead autofluor: 2945
Cn1nccc1-c1ccc(C(=O)NCc2ccco2)c2occc12
  Bead autofluor: 2831
CSc1ccc(CN2CCC2(C)C(=O)Nc2cccc(NS(C)(=O)=O)c2)cc1 (stereo unspecified)
  Bead autofluor: 3761
CCN(CC)C(=O)C1=C(C)N(Cc2ccc(OC)cc2)C(=O)C(CC(=O)NCCc2ccccn2)C1 (stereo unspecified)
  Bead autofluor: 3814
O=C(/C=C/[C@H]1O[C@@H](n2ccc(=O)[nH]c2=O)[C@H](O)[C@@H]1O)N1CCN(Cc2ccc(F)cc2)CC1
  Bead autofluor: 5603
CCCOc1ccc(F)cc1-c1cc(C(=O)Nc2ccc(OC)cc2C)[nH]n1
  Bead autofluor: 3815
CCc1nc2c(OCc3ccc(F)c(F)c3)cccn2c1N(C)C(=O)c1ccncc1
  Bead autofluor: 3679
COc1ccc(CCNC(=O)CCCn2c(=S)[nH]c3ccsc3c2=O)cc1OC
  Bead autofluor: 3013
CN(C)CCCOc1ccc(-c2ccc3nccn3c2)cn1
  Bead autofluor: 3380
O=C1c2ccccc2C(c2nc3ccccc3[nH]2)N1Cc1ccco1 (stereo unspecified)
  Bead autofluor: 4195

CN(CCOc1ccccc1)C(=O)c1cc(S(=O)(=O)N2CCOCC2)c(Cl)cc1Cl
  Bead autofluor: 3896
COc1ccc(C(=O)NCC2(c3ccc(OC)c(OC)c3)CCCC2)cc1OC
  Bead autofluor: 3784
O=C(Nc1ccc(C(=O)N2CCOCC2)cc1)c1ccccc1Cl
  Bead autofluor: 3907
COc1ccccc1C(=O)NCC[N+](C)(C)C
  Bead autofluor: 6300
C=CCCC(=O)N1C[C@@H](CO)[C@@H](NC)C[C@H]1c1ccccc1Br
  Bead autofluor: 4279
COc1ccc(CCCNC(=O)C2(C)Cc3c(-c4cccc(C(N)=O)c4)ccnc3O2)cc1 (stereo unspecified)
  Bead autofluor: 2923
Cc1cccc(-c2cc3nc(C)cc(=O)n3[nH]2)c1
  Bead autofluor: 3097
O=c1oc(-c2ccccc2)cc2ccccc12
  Bead autofluor: 5266
CSCCC(C(=O)Nc1c(C)cccc1C)N1CCN(c2ccc(C(F)(F)F)cn2)CC1 (stereo unspecified)
  Bead autofluor: 6170
CCCN1CCN(C(=O)c2ccc3[nH]c(C)c(C)c3c2)CC1
  Bead autofluor: 3636
CC1(c2nnnn2-c2ccc3c(c2)OCCO3)CCC(=O)N1Cc1cccnc1 (stereo unspecified)
  Bead autofluor: 5907
CCNC(=O)C1(C)CCN1CCC(=O)c1ccc(C)cc1 (stereo unspecified)
  Bead autofluor: 2861
COc1ccc(NC(=O)C[C@H]2C(=O)N(Cc3cccnc3)C[C@@H]2Cc2ccccc2)cc1
  Bead autofluor: 2743
C=CCNc1ncnc2c1ncn2[C@H]1CN(Cc2ccc3c(c2)OCO3)C[C@@H](CO)O1
  Bead autofluor: 2952
CCC(=O)N1CCC(C)(C(=O)Nc2ccc3c(c2)OCO3)C1 (stereo unspecified)
  Bead autofluor: 3400
O=C1NCN(c2ccccc2)C12CCN(C(c1cc3ccccc3o1)c1nnnn1Cc1ccccc1)CC2 (stereo unspecified)
  Bead autofluor: 6186
NS(=O)(=O)c1cc(Br)c2c(c1)S(=O)(=O)NCN2
  Bead autofluor: 3455
O=C(c1cc(Cl)cc(Cl)c1)N1CCC(=O)N([C@H](COCc2ccccc2)Cc2ccccc2)CC1
  Bead autofluor: 5918
COc1ccc(NC(=O)c2cc(-c3cc(F)ccc3OC)n[nH]2)cn1
  Bead autofluor: 3778
C[C@@H]1CN([C@@H](C)CO)C(=O)c2cc(NS(C)(=O)=O)ccc2O[C@@H](C)CCCCO[C@H]1CN(C)C(=O)Nc1ccc2c(c1)OCO2
  Bead autofluor: 3249
C/C=C1\NC(=O)[C@H](C)NC(=O)[C@@H](NC(=O)[C@H](Cc2ccc(O)cc2)NC(=O)[C@@H](NC(=O)/C(C)=C/C)C(C)C)[C@@H](C)OC(=O)[C@H](CCCc2ccc(O)cc2)NC(=O)[C@@H](CCC(=O)OC)NC1=O
  Bead autofluor: 4846
CCOC(=O)C1(C)CCCN(C(=O)c2cccc(Cl)c2)C1 (stereo unspecified)
  Bead autofluor: 3447
O=C(NCc1ccccc1Cl)c1ccc2sc([C@H]3C[C@H](O)[C@@H](CO)O3)nc2c1
  Bead autofluor: 3830
Cn1ccc2c(-c3cccnc3)cc3c(c21)C1CCC3O1 (stereo unspecified)
  Bead autofluor: 4522
CC1=C(C(=O)N2CCOCC2)CC(CC(=O)NC2CCCC2)C(=O)N1Cc1ccccc1 (stereo unspecified)
  Bead autofluor: 3012

CC1(C(=O)NS(=O)(=O)c2ccccc2)CCN1C(=O)CCc1ccccc1 (stereo unspecified)
  Bead autofluor: 2845
CNc1nc(NCCCN2CCCC2=O)c2sccc2n1
  Bead autofluor: 4100
COc1ccc(-c2nc3ccc(Cl)cn3c2Cc2ccsc2)cc1OC
  Bead autofluor: 5969
CCOc1ccc(-c2cncc3nccn23)cc1
  Bead autofluor: 3512
CN1OC[C@@H]2CN(Cc3cc(Cl)cc(Cl)c3)[C@H](c3cccc(-c4ccc(C#N)cc4)c3)C[C@@H]21
  Bead autofluor: 3233
COc1ccc(-c2ccc3c(c2)S(=O)(=O)c2cccc(C(=O)N4CCN(c5ccccn5)CC4)c2C3=O)cc1OC
  Bead autofluor: 3284

These rows are one share of the data; count on the stated rates, not on these rows.
